Assay outcomes deposited in PubChem by ICCB-Longwood Screening Facility, Harvard Medical School.
PV pol inh: poliovirus RdRp elongation inhibitors, primary screen, biochemical, fluorescence polarization, total intensity. Genome polyprotein (Poliovirus type 1 (strain Mahoney)), P03300. poliovirus polymerase elongation; hits give low values. % elongation, % (compound at 16.7 µg/mL). 150,000 compounds, 0.66% hits. AID 588519, 2011; in the data active = % elongation below about 90%; note: some results filed as inactive read as strong as hits
Target sequence (P03300 1749-2209 limits assumed): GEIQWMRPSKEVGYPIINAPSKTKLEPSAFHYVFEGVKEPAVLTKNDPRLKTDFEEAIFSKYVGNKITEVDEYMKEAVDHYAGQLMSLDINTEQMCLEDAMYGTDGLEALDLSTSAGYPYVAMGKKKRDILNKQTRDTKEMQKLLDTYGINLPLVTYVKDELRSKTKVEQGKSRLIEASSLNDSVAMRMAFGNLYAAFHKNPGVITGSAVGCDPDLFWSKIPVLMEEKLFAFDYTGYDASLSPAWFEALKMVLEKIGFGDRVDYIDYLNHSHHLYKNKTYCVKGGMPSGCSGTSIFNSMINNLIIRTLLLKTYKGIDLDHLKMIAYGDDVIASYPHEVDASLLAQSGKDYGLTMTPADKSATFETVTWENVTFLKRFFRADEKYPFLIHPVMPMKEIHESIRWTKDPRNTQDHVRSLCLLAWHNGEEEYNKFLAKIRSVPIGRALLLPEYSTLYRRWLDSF
PV pol inh intensity: recorded beside PV pol inh, whose call it bears; % elongation; measured here: total intensity read-out; formula for this scale not given here;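 total fluorescence in place of polarization; lower means less elongation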
Active calls of the source: *.

What do the screens show for `N#Cc1c(C(F)(F)F)cc(-c2ccc(F)cc2)nc1SCC(=O)Nc1ccccc1`?
PV pol inh: 112; PV pol inh intensity: 119

How did CCOc1ccc(Sc2cc(C(=O)NCc3ccc(C)cc3)c3ccccc3n2)cc1 do in these assays?
PV pol inh: 105; PV pol inh intensity: 109

How did CCCn1c(=N)c(C(=O)NC2CCCC2)cc2c(=O)n3cc(C)ccc3nc21 do in these assays?
PV pol inh: 113; PV pol inh intensity: 113

What do the screens show for `Cc1ccc(Cn2c(=O)n(Cc3ccccc3Cl)c(=O)c3cccnc32)cc1`?
PV pol inh: 108; PV pol inh intensity: 113

Results for CCCC(=O)Nc1cc(-c2nnc3c4ccccc4c(C)nn23)ccc1C ?
PV pol inh: 101; PV pol inh intensity: 106

What do the screens show for `COc1cc(Cl)c(C)cc1NC(=O)c1nn(C)c2c1CSc1ccccc1-2`?
PV pol inh: 112; PV pol inh intensity: 115

How did COc1ccc(OC)c(-n2c3c(cc(-c4nc(-c5ccc(Cl)cc5)cs4)c2=O)C(=O)CC(C)(C)C3)c1 do in these assays?
PV pol inh: 107; PV pol inh intensity: 111

What do the screens show for `CCOc1ccc(CNC(=O)c2cc(=O)[nH]c3ccc(S(=O)(=O)N4CCCCC4)cc23)cc1`?
PV pol inh: 110; PV pol inh intensity: 108

How did COC(=O)c1scc(-c2ccc(C)cc2)c1S(=O)(=O)N1CCN(c2cccc(OC)c2)CC1 do in these assays?
PV pol inh: 112; PV pol inh intensity: 109

Results for CCOC(=O)c1cccc(NC(=O)c2ccc3nc(CCc4ccccc4)oc3c2)c1 ?
PV pol inh: 106; PV pol inh intensity: 113

How did CCOC(=O)c1c(N)n(-c2ccc(C)c(Cl)c2)c2nc3ccccc3nc12 do in these assays?
PV pol inh: 109; PV pol inh intensity: 126

How did O=C1CC(c2nc(-c3ccccc3)no2)CN1c1ccc2c(c1)OCCO2 (configuration not stated) do in these assays?
PV pol inh: 106; PV pol inh intensity: 107

Results for CCOc1ccccc1NC(=O)Cn1nnc(C(=O)NCc2cccs2)c1N ?
PV pol inh: 111; PV pol inh intensity: 115

How did O=C(CCc1nc2cccnc2n1Cc1ccccc1)NCc1cccc(Cl)c1 do in these assays?
PV pol inh: 99; PV pol inh intensity: 101

How did COc1cccc(OCCCCn2c(-c3ccc(Cl)cc3)nc3ccccc3c2=O)c1 do in these assays?
PV pol inh: 101; PV pol inh intensity: 99

Reprinted from the listing for reference:
How did O=C(CCc1nc2cccnc2n1Cc1ccccc1)NCc1cccc(Cl)c1 do in these assays?
PV pol inh: 99; PV pol inh intensity: 101

How did COc1cccc(OCCCCn2c(-c3ccc(Cl)cc3)nc3ccccc3c2=O)c1 do in these assays?
PV pol inh: 101; PV pol inh intensity: 99

Structures from the list above containing a carbonyl joined to an NH by a bond outside any ring, in the order listed:
What do the screens show for `N#Cc1c(C(F)(F)F)cc(-c2ccc(F)cc2)nc1SCC(=O)Nc1ccccc1`?
PV pol inh: 112; PV pol inh intensity: 119

How did CCOc1ccc(Sc2cc(C(=O)NCc3ccc(C)cc3)c3ccccc3n2)cc1 do in these assays?
PV pol inh: 105; PV pol inh intensity: 109

How did CCCn1c(=N)c(C(=O)NC2CCCC2)cc2c(=O)n3cc(C)ccc3nc21 do in these assays?
PV pol inh: 113; PV pol inh intensity: 113

Results for CCCC(=O)Nc1cc(-c2nnc3c4ccccc4c(C)nn23)ccc1C ?
PV pol inh: 101; PV pol inh intensity: 106

What do the screens show for `COc1cc(Cl)c(C)cc1NC(=O)c1nn(C)c2c1CSc1ccccc1-2`?
PV pol inh: 112; PV pol inh intensity: 115

What do the screens show for `CCOc1ccc(CNC(=O)c2cc(=O)[nH]c3ccc(S(=O)(=O)N4CCCCC4)cc23)cc1`?
PV pol inh: 110; PV pol inh intensity: 108

Results for CCOC(=O)c1cccc(NC(=O)c2ccc3nc(CCc4ccccc4)oc3c2)c1 ?
PV pol inh: 106; PV pol inh intensity: 113

Results for CCOc1ccccc1NC(=O)Cn1nnc(C(=O)NCc2cccs2)c1N ?
PV pol inh: 111; PV pol inh intensity: 115

How did O=C(CCc1nc2cccnc2n1Cc1ccccc1)NCc1cccc(Cl)c1 do in these assays?
PV pol inh: 99; PV pol inh intensity: 101

The listing continues:
How did COc1ccc(OC)c(CNS(=O)(=O)c2ccc3[nH]c4c(c3c2)CCCCC4)c1 do in these assays?
PV pol inh: 107; PV pol inh intensity: 112

How did O=c1c2ccccc2nc(/C=C/c2cccc3ccccc23)n1-c1ccc(F)cc1F do in these assays?
PV pol inh: 109; PV pol inh intensity: 102

What do the screens show for `Cc1ccc(Nc2cc(C)c(C#N)c3nc4ccccc4n23)cc1Cl`?
PV pol inh: 101; PV pol inh intensity: 117

Results for COc1ccc(NC(=O)Cn2cnc3ccc(S(=O)(=O)N4CCC(C)CC4)cc3c2=O)cc1OC ?
PV pol inh: 102; PV pol inh intensity: 103

What do the screens show for `CC1=C(C(=O)OCC2CCCCC2)C(c2c(F)cccc2Cl)CC(=O)N1` (configuration not stated)?
PV pol inh: 109; PV pol inh intensity: 109

What do the screens show for `COc1ccc(-n2ncc(C(=O)NCc3ccccc3)c2C2CCN(C(=O)OC(C)(C)C)CC2)cc1`?
PV pol inh: 103; PV pol inh intensity: 107

Results for CC(=O)c1cccc(NC(=O)CCS(=O)(=O)c2cc(Br)cc3c2N(C(=O)C2CC2)CC3)c1 ?
PV pol inh: 108; PV pol inh intensity: 107

What do the screens show for `CCOc1ccccc1NC(=O)Cn1nnc2sc(-c3ccccc3)cc2c1=O`?
PV pol inh: 106; PV pol inh intensity: 110

Results for CC(C)(CC(=O)OCC(=O)Nc1ccccc1F)CC1=NS(=O)(=O)c2ccccc2N1 ?
PV pol inh: 110; PV pol inh intensity: 104

What do the screens show for `CCc1ccc(CN(Cc2ccco2)C(=O)COc2ccc(Cl)c(C)c2)cc1`?
PV pol inh: 100; PV pol inh intensity: 101

How did CCN(Cc1ccccc1)C(=O)c1cc2ccc3cccnc3c2[nH]1 do in these assays?
PV pol inh: 109; PV pol inh intensity: 110

How did CCC1=Nc2cc(C(=O)NCC(C)c3ccccc3)ccc2Sc2ccc(C)cc21 (configuration not stated) do in these assays?
PV pol inh: 111; PV pol inh intensity: 110

Results for COc1cccc(N2CCN(c3ncnc4c3c(-c3ccccc3)cn4-c3ccc(F)cc3)CC2)c1 ?
PV pol inh: 109; PV pol inh intensity: 111

Results for Cc1ccc(NC(=O)c2ccc(=O)n(CC(=O)Nc3ccccc3)n2)cc1 ?
PV pol inh: 107; PV pol inh intensity: 111

What do the screens show for `O=C(CN1C(=O)C2(SCC(=O)N2c2cccc(F)c2)c2ccccc21)NCCc1ccccc1` (configuration not stated)?
PV pol inh: 105; PV pol inh intensity: 111

How did O=C1CC(c2ccccc2)c2c(n3ncnc3[nH]c2=O)N1 (configuration not stated) do in these assays?
PV pol inh: 104; PV pol inh intensity: 104

How did Cc1c(NC(=O)c2cc(=O)c3cc(Cl)ccc3o2)c(=O)n(-c2ccccc2)n1C do in these assays?
PV pol inh: 105; PV pol inh intensity: 110

What do the screens show for `Cc1cc(C)cc(NC(=O)NCCc2c(C)nn(C)c2C)c1`?
PV pol inh: 107; PV pol inh intensity: 111

Results for COc1ccc(-c2nc3nc(C)cc(Nc4cccc(C(F)(F)F)c4)n3n2)cc1 ?
PV pol inh: 106; PV pol inh intensity: 102

How did COc1ccc(NC(=O)C(=O)NCCc2ccc(OC)c(OC)c2)c(OC)c1 do in these assays?
PV pol inh: 102; PV pol inh intensity: 104

What do the screens show for `Cc1ccc(CNC(=O)C2CCN(c3nc4ccccc4n(C)c3=O)CC2)cc1`?
PV pol inh: 106; PV pol inh intensity: 112

How did Cc1ccccc1CNCCCSc1nnnn1C do in these assays?
PV pol inh: 110; PV pol inh intensity: 108

Results for CC(=O)Nc1ccc(S(=O)(=O)NC2(C(F)(F)F)C(=O)Nc3c2c(=O)[nH]c(=O)n3-c2ccc(C)cc2)cc1 (configuration not stated) ?
PV pol inh: 102; PV pol inh intensity: 101

Results for COc1ccc(-n2c(=O)c3c(c4cc(OC)ccc4n3C)n(Cc3cccc(OC)c3)c2=O)cc1 ?
PV pol inh: 112; PV pol inh intensity: 106

What do the screens show for `CCOC(=O)c1[nH]c(C)c(CCC(=O)NCc2ccc(OC)cc2)c1C`?
PV pol inh: 105; PV pol inh intensity: 115

Results for Cc1cc(=O)c2cc(C(=O)Nc3ccc(F)cc3)ccc2[nH]1 ?
PV pol inh: 106; PV pol inh intensity: 111

Results for O=c1c2sc3ccccc3c2n(Cc2cccc(Cl)c2)c(=O)n1Cc1ccc(F)cc1 ?
PV pol inh: 109; PV pol inh intensity: 109

What do the screens show for `COc1ccc(N2CCN(Cc3nnc(-c4cccc(Br)c4)o3)CC2)cc1`?
PV pol inh: 107; PV pol inh intensity: 108

How did COc1ccccc1C(=O)Nc1cccc(C(=O)OCc2cc(=O)n3nc(C)sc3n2)c1 do in these assays?
PV pol inh: 104; PV pol inh intensity: 107

How did CCCCCCOc1ccc(C2C(=O)N(C3CCCCC3)CC(=O)N2CCC)cc1 (configuration not stated) do in these assays?
PV pol inh: 109; PV pol inh intensity: 105

Results for CC(C)CCN(C(=O)Nc1ccccc1)C(C)c1cccs1 (configuration not stated) ?
PV pol inh: 99; PV pol inh intensity: 99

How did Cc1cc(C)cc(-n2ccnc2SCC(=O)Nc2ccc3c(c2)OCO3)c1 do in these assays?
PV pol inh: 96; PV pol inh intensity: 107

Results for CCc1ccccc1NC(=O)Cn1c(=O)n(C(C)C)c(=O)c2oc3ccccc3c21 ?
PV pol inh: 103; PV pol inh intensity: 107

How did Cc1ccc(OCC(=O)Nc2ccccc2C(=O)OCc2cc(=O)n3ccsc3n2)cc1C do in these assays?
PV pol inh: 106; PV pol inh intensity: 108

Results for COc1ccc2nc3oc(C(=O)N(C)c4ccc(Cl)cc4)cc3cc2c1 ?
PV pol inh: 109; PV pol inh intensity: 112

Results for O=C(CSc1nc2cc(C(=O)NC3CCCC3)ccc2c(=O)n1CC1CCCO1)c1ccc(F)cc1 (configuration not stated) ?
PV pol inh: 106; PV pol inh intensity: 105

Results for Cc1cccc(NC(=O)c2c(C)cc(C)nc2SCC(=O)Nc2c(C)cc(C)cc2C)c1 ?
PV pol inh: 109; PV pol inh intensity: 110

What do the screens show for `COc1ccc(NC(=O)Cn2c(=O)n(CC3CCCO3)c(=O)c3ccccc32)cc1` (configuration not stated)?
PV pol inh: 108; PV pol inh intensity: 109

What do the screens show for `COc1ccc(CCNc2nc(SCc3ccc(F)cc3)nc3ccccc23)cc1OC`?
PV pol inh: 112; PV pol inh intensity: 106

Results for O=C(Nc1ccc(Br)cc1)c1ccc(Cl)c(S(=O)(=O)N2CCCCCC2)c1 ?
PV pol inh: 107; PV pol inh intensity: 115

Results for COc1ccc(NC(=O)CN2C(=O)c3ccccc3Sc3ccc(C(=O)N4CCOCC4)cc32)c(OC)c1 ?
PV pol inh: 104; PV pol inh intensity: 107

What do the screens show for `Cc1nc(-c2ccc(S(=O)(=O)NCc3ccc(N(C)C)cc3)cc2)co1`?
PV pol inh: 102; PV pol inh intensity: 110

What do the screens show for `COc1ccc(Cn2ccnc2SCC(=O)Nc2nc3ccccc3s2)cc1`?
PV pol inh: 108; PV pol inh intensity: 111

What do the screens show for `Cc1ccc(NC(=O)c2ccc3c(c2)NC(=O)c2ccccc2S3)c(Cl)c1`?
PV pol inh: 111; PV pol inh intensity: 113

How did O=C(c1ccc2c(c1)CCCC2)N1CCN(c2nc3ccc(F)cc3s2)CC1 do in these assays?
PV pol inh: 113; PV pol inh intensity: 111

What do the screens show for `CCCCn1c(=O)c2oc3ccccc3c2n(Cc2ccccc2C)c1=O`?
PV pol inh: 111; PV pol inh intensity: 113

How did Cc1ccc(C)c(N2CCN(C(=O)c3cc4c(=O)oc5ccccc5c4s3)CC2)c1 do in these assays?
PV pol inh: 105; PV pol inh intensity: 112

Results for Cc1cccc(N2CCN(Cc3nnc(-c4cccc(Br)c4)o3)CC2)c1C ?
PV pol inh: 105; PV pol inh intensity: 108

What do the screens show for `Cc1cc(N2CCN(c3cccc(C(F)(F)F)c3)CC2)n2nc(-c3ccccc3C)nc2n1`?
PV pol inh: 115; PV pol inh intensity: 117

Results for Cc1ccc2oc(-c3ccc(Cl)c(NC(=O)c4ccc(-c5ccccc5[N+](=O)[O-])o4)c3)nc2c1 ?
PV pol inh: 110; PV pol inh intensity: 110

Results for CCc1ccc(NC(=O)CCn2cnc3ccccc3c2=O)cc1 ?
PV pol inh: 107; PV pol inh intensity: 108

Results for COc1ccccc1CCNC(=O)Cc1c(C)c2ccc(O)cc2oc1=O ?
PV pol inh: 108; PV pol inh intensity: 112

How did COc1ccc(NC(=O)CSc2nc3c(oc4ccccc43)c(=O)n2-c2ccccc2)cc1OC do in these assays?
PV pol inh: 107; PV pol inh intensity: 110

Results for Cc1cc(Cl)ccc1OCC(=O)N1CCC(c2nc3ccccc3s2)CC1 ?
PV pol inh: 112; PV pol inh intensity: 109

Results for O=C(NCCCO)C(=O)NCC(c1ccc2c(c1)OCO2)N1CCOCC1 (configuration not stated) ?
PV pol inh: 99; PV pol inh intensity: 107

What do the screens show for `CCOC(=O)c1c(-c2ccc(C)cc2)csc1NC(=O)c1cc(-c2ccc(C)c(F)c2)on1`?
PV pol inh: 111; PV pol inh intensity: 113

Results for COc1ccc(C2CC(=O)c3c(C)nc(N4CCN(C=O)CC4)nc3C2)c(OC)c1 (configuration not stated) ?
PV pol inh: 108; PV pol inh intensity: 109

How did Cc1nc2c(C(=O)NCCc3ccccc3)c[nH]n2c(=O)c1Cc1ccc(F)cc1Cl do in these assays?
PV pol inh: 104; PV pol inh intensity: 108

Results for CCOc1ccc(C(=O)NCC(c2ccc3c(c2)OCO3)N2CCN(c3ccc(F)cc3)CC2)cc1 (configuration not stated) ?
PV pol inh: 103; PV pol inh intensity: 104

What do the screens show for `O=C(Nc1ccc(F)cc1)c1ccc2c(c1)NC(=O)c1ccccc1S2`?
PV pol inh: 109; PV pol inh intensity: 116

Results for Cc1cccc(C(=O)Nc2cccc(OCc3cc(=O)n4cc(C)sc4n3)c2)c1 ?
PV pol inh: 104; PV pol inh intensity: 111

How did CCc1ccc(C(=O)c2cn(CC(=O)Nc3ccc(OC)cc3OC)c3ccc(CC)cc3c2=O)cc1 do in these assays?
PV pol inh: 105; PV pol inh intensity: 107

A portion of the library (hit frequency here may not be typical).
